# Sfp inh = Sfp phosphopantetheinyl transferase inhibition; Biochemical Sfp PPTase activity, qHTS; hit rate 3.5% among 310,000; Potency, µM, without a hit: max response, negative = inhibition, most hits filed as inhibitors; active means well fitted inhibition curve with a large enough effect; inconclusive means small, poorly fitted or top-dose-only effect, or another doubt; inactive means no such curve, though single readings can be large or run the other way;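 further: the enzyme is Sfp with the accession as filed and its product quenches rhodamine fluorescence; potency means the concentration at half of the fitted maximal effect; 0% = enzyme reaction without inhibitor and -100% = no enzyme wells; top concentration of the series not given in the record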
#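 With Hepes-Na pH 7.6 buffer containing 10 mM MgCl2, Sfp (15 nM) modified BHQ-2-YbbR (12.5 uM) using rhodamine-CoA (5 uM). Two reads 30 minutes apart at 525/598 nm yielded each well's rate.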
# TRPV1 PAM = enhances activation of the human vanilloid receptor TRPV1 | Q8NER1 | TRPV1-expressing cells, Fluo-8 calcium influx, capsaicin EC20 potentiation; host cell line not named in the record; control for the full effect not named in the record | potentiation, % at 8.33 µM | hit rate 0.02% among 320,000 | AID 540277; active means potentiation above 80%; inconclusive means 30% to 80%; inactive means below 30%; further: 0% is about no effect
# Target sequence (Q8NER1 whole entry, looked up): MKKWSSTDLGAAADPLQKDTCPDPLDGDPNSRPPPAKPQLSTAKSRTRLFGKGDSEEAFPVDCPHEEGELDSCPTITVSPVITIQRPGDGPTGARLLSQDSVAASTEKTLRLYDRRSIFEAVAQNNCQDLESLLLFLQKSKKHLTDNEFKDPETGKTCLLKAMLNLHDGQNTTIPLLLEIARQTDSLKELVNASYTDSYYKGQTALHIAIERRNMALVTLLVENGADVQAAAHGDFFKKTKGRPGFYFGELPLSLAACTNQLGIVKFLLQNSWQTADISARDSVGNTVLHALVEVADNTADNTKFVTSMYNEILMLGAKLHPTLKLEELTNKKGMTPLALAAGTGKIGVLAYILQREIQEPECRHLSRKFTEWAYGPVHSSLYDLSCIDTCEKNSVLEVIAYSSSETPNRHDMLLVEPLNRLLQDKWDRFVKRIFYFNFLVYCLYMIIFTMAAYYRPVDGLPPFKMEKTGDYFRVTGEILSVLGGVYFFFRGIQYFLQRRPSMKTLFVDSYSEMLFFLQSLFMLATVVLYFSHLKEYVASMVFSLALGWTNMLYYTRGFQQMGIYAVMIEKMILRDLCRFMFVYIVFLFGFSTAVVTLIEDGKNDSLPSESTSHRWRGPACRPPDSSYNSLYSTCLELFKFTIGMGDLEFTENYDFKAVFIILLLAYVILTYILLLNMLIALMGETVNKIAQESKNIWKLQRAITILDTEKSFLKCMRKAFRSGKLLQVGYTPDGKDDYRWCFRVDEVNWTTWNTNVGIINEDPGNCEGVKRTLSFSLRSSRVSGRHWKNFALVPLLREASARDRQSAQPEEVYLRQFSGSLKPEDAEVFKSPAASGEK
#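 Fluo-8 calcium influx in TRPV1-expressing cells, kinetic read (ex 480/em 520 nm). Compound added and read 3 min for agonist activity, followed by capsaicin at EC20 final and 2 min further read for enhancement.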
# PINK1 expr mod = changes PINK1 expression | PINK1 immunofluorescence, high-content cytometry, 24 h | Potency, µM (highest dose often 76.6 µM), for the others: at the top dose activation (PINK1 increase), hits mostly activators | hit rate 0.2% among 410,000 | AID 624263; active = well fitted activation curve with a large enough effect; inconclusive = small, poorly fitted or top-dose-only effect; inactive = flat fitted curve, though single readings scatter; cell line not stated here;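 further: potency means the concentration at half of the fitted maximal effect; % of control where 0% means no effect; nearly all actives have a fitted effect of over 65% in size; a mitochondrial uncoupler was the plate control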
#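 Decision-based qHTS: stable cells, 24 h exposure to five compound concentrations, CCCP as control. Fixed cells stained for PINK1 plus nuclear, mitochondrial and cell markers, cytometer read.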
# TRPML1 ag = agonists of human TRPML1 channel; Q9GZU1; TRPML1-expressing cells, Ca2+ dye fluorescence, FDSS; host cell line not named in the record; reference of the full effect not given here; activation, % (concentration not given with the values); hit rate 0.12% among 410,000; AID 624414; in the data active = activation above about 50%; inconclusive = about 30% to 50%; inactive = below about 30%; further: 0% is about no effect; the text of the record puts the active cut at 80%
#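 Tet-induced TRPML1-DL cells, 1,500 per well, cultured overnight, were loaded with a no-wash Ca2+ dye for 45–90 min. Calcium fluorescence was recorded on the FDSS for 110 s after compound addition, before the EC80 agonist (4 uM 54-4) was added.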
# TRPML1 inh = blocks the human TRPML1 channel. TRPML1-inducible cells, Ca2+ dye fluorescence, FDSS; active compounds read low; inhibition of EC80 agonist-evoked calcium signal. activity change, negative = inhibition, % (test concentration not listed). hit rate 0.02% among 390,000. AID 624415; in the data active means activity change below about -50%; inconclusive means about -30% to -50%; inactive means above about -30%;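 further: stimulus is agonist 54-4 at its EC80 concentration; on the % scale 0 is the no-effect control and ±100 the full control effect; compound concentration not given in the record; the text of the record puts the active cut at -80%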
#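 Calcium fluorescence in TRPML1-DL cells induced overnight with Tet: a 110 s read after compound pin addition, then a 110 s antagonist read after challenge with 54-4 at 4 uM final (EC80).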
# Menin-MLL FL inh = menin-MLL binding inhibition, fluorescein peptide; Fluorescence polarization, fluorescein-MLL peptide displacement from menin; FP activity change, % at 61.4 µM; 290,000 tested, under 10 active; AID 1766; inconclusive = falling polarisation curve, or a change in total fluorescence; inactive = total fluorescence flat and polarisation flat or rising; no compound was filed as active; the % refers to the polarisation; negative = inhibition;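 further: % of control where 0% means no effect; inhibitors lower the polarisation; unlabelled MLL peptide was the positive control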
# ClpP mod = qHTS Assay for Activators of ClpP; hit rate 1.9% among 340,000; ATP-dependent Clp protease proteolytic subunit (Bacillus subtilis (strain 168)), P80244; Potency, µM (highest dose often 57.5 µM), inactives show top-dose activity change, negative = active; purified B. subtilis ClpP, FRET peptide cleavage, 20 min; AID 651965, 2013; active = well fitted falling curve with a large enough effect; inconclusive = small, poorly fitted or top-dose-only effect; inactive = no such curve, though single readings can be large or run the other way; further: potency means the concentration at half of the fitted maximal effect; the source files actives as falling curves though it sought activators and does not explain the sign; nearly all actives have a fitted effect of over 65% in size; many hits overshoot -100%
# Target sequence (P80244 whole entry, looked up): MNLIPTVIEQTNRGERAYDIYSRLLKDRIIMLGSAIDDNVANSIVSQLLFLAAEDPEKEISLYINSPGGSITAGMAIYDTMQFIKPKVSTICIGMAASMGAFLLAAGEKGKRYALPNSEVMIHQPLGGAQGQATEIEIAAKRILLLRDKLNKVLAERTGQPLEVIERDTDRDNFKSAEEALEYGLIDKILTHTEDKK
#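 Buffer: 100 mM Tris/HCl pH8, 100 mM KCl, 0.05% low protease BSA, 2.5% glycerol, 0.01% Tween-20. ClpP 10 microg/mL final; 20 min RT; delta FRET normalized to ADEP and DMSO controls.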
# The depositor's hits bear a star; ? = inconclusive; . = not tested or not shown; & = joins results of further samples; [ ] = dose if it differs, or a comment.
Compound,Sfp inh,TRPV1 PAM,PINK1 expr mod,TRPML1 ag,TRPML1 inh,Menin-MLL FL inh,ClpP mod
Cc1ccc(C(=O)OCC(=O)Nc2ccc3[nH]c(=O)[nH]c3c2)o1,.,19.1,0.8%,-0.1,-16.1,.,-11.3%
COC(=O)c1ccc(N2CCN(C)CC2)c(NC(=O)c2cccnc2)c1,-2.6%,6.6,-1.3%,-0.6,-8.3,-1.2,-25.0%
CN1C=CC=C/C1=C(\C#N)c1nc2ccccc2[nH]1,13.1%,1.4,22.8%[38.3 µM],-0.5,-11.7,2.5,0.0%
Cc1ccccc1-c1cncnc1NCc1ccccc1,-17.1%,.,2.0%,.,.,9.0,.
CCOC(=O)[C@]12CCC=C1N(Cc1ccccc1)C(=O)[C@H](CC(=O)NCc1ccccc1)C2,.,.,0.5%,-1.0,.,.,-4.5%
COCCN(C(=O)Cn1nnc2ccccc21)C(C(=O)NC1CCCC1)c1cccc(OC)c1OC (stereo not given),-8.9%,29.5,0.8%,0.7,-8.9,-1.7,-0.7%
C[C@H]1CN([C@@H](C)CO)C(=O)c2cccc(NC(=O)Nc3ccc(F)cc3)c2O[C@@H]1CN(C)Cc1ccc(C(=O)O)cc1,.,.,0.1%,-0.5,17.1,.,0.0%
CCOc1ccccc1N1CC(C(=O)Nc2ccccc2CC)CC1=O (stereo not given),8.7%,4.1,3.2%,-0.1,15.2,.,.
O=C(N/N=C/c1cccc(Br)c1)c1ccc(Cn2cc(Br)cn2)o1,?,-8.7,5.6%,-0.5,-3.6,6.1,0.1%
Cc1ccc(S(=O)(=O)Nc2ncccn2)cc1,-7.2%,-1.1,-1.3%,-0.3,-13.8,2.8,-3.3%
F[B-](F)(F)c1cnc2ccccc2c1,.,.,-1.2%,0.1,36.8,.,3.2%
O=C1c2ccccc2NC(c2ccc(F)cc2)N1Cc1ccco1 (stereo not given),-0.2%,-3.3,-2.0%,3.5,25.1,2.4,?
Cc1c(NC(=O)c2cc3c(=O)n4ccccc4nc3s2)c(=O)n(-c2ccccc2)n1C,4.9%,-3.1,-1.3%,0.6,-5.2,1.7,-4.0%
C/C(NC(=O)c1ccccc1)=C1/C(=O)CC2C1C2(C)C (stereo not given),-5.6%,-22.5,15.0%,3.5,6.0,-2.9,52.2%
COc1ccc(C2NC(=O)NC(c3ccccc3)=C2c2nc3ccccc3s2)cc1 (stereo not given),?,?,-0.1%[38.3 µM],2.6,1.0,-0.4,-8.2%
COc1ccccc1N1CCN(C(=O)c2oc3ccc(Br)cc3c2C)CC1,-0.3%,-4.1,4.5%,-1.0,1.3,0.4,-0.6%
C/C(=N\NC(=O)Cn1c(-c2ccccn2)nc2ccccc21)c1ccccc1,-0.8%,4.6,3.6%,0.0,22.0,2.2,.
COc1cc(C(=O)Nc2c(C(=O)O)[nH]c3ccccc23)cc(OC)c1OC,-4.9%,7.5,-2.5%,2.6,-8.8,-4.6,-3.9%
FC(F)(F)c1nc2ccccc2nc1N/N=C\c1ccccc1,19.4%,1.6,4.6%,4.2,-25.1,3.0,1.1%
CCN(Cc1ccccc1)Cc1c(C)[nH]c2c(C)c(C)ccc2c1=O,12.2%,6.0,0.5%,0.2,23.9,2.3,-3.9%
CC12CCC(C(=O)Nc3ccc4c(c3)OCCO4)(OC1=O)C2(C)C (stereo not given),7.4%,0.7,?,-0.8,-5.4,1.7,0.8%
COc1ccc(-c2cc3nc(C)c(CCC(=O)N4CCN(c5ccccc5F)CC4)c(C)n3n2)c(OC)c1,.,.,0.2%,-1.1,-4.7,.,-11.7%
CCCn1cnc2cc(NCc3ccc(OC)cc3OC)ccc21,.,.,-0.9%,0.6,-9.5,.,?
Cc1nc2ccn(Cc3ccco3)c(=O)c2cc1C(=O)NCc1ccccc1F,.,.,1.7%,-0.3,-10.5,.,5.0%
O=C(NCC1CCCO1)c1ccc2c(c1)N(Cc1ccccc1)C(=O)CS2 (stereo not given),2.8%,-5.8,0.2%,1.2,-3.0,-7.5,0.7%
COc1ccc(/C=C2\SC(=O)N(CCNC(=O)CN3C(=O)NC4(CCCC4)C3=O)C2=O)cc1,.,17.4,3.9%,0.4,23.7,.,-4.5%
CC(C)C[C@@H](CNCC(=O)[C@H](CC(C)C)NC(=O)c1[nH]cnc1C(=O)N[C@H](CN)CC(C)C)NC(=O)c1nc[nH]c1C(=O)N[C@@H](CC(=O)O)C(=O)O,.,.,2.7%,-0.7,-8.1,.,2.7%
Cc1cccc(CN2C(=O)CC(c3ccc(Cl)cc3)c3c(C)nn(-c4nc(C)cc(C)n4)c32)c1 (stereo not given),.,.,6.9%,0.8,-6.5,.,1.8%
CCOc1ccc(S(=O)(=O)NCCSc2ccccc2)cc1,7.0%,-5.3,-1.3%,0.8,9.3,-0.5,-1.8%
CC1(C)CN(Cc2ccccc2)C(=O)[C@H]1CC(=O)Nc1ccc(Br)cc1,.,.,-1.4%,1.8,2.2,.,-3.2%
CC(C)NC(=O)c1ccc2c(c1)N(CC(=O)NC1CCCCC1)C(=O)C(C)(C)O2,4.0%,-3.1,0.3%,0.0,16.2,-0.6,.
Cc1c(NC(=O)Nc2ccc(Cl)c(Cl)c2)c(=O)n(-c2ccccc2)n1C,6.6%,3.0,8.8%,-0.1,-5.2,1.3,1.3%
Fc1ccc(CNc2nc3c(-c4ccc(F)cc4)nnn3c3ccccc23)cc1,.,.,-0.2%,-0.6,16.4,.,-16.6%
CC1CC(C)(C)N(C(=O)CN2C(=O)CCC2=O)c2ccccc21 (stereo not given),11.0%,3.0,0.3%,-0.6,5.5,2.2,.
Cc1cc(NS(=O)(=O)c2c(C(=O)N3CCOCC3)c(C)n(C)c2C)ccc1Br,9.1%,2.8,2.8%,-0.3,-5.7,5.1,0.4%
CCOC(=O)c1noc2ncnc(N3CCN(c4ccccc4OC)CC3)c12,.,.,7.1%,-1.0,-17.9,.,0.0%
CCN(CC)C(=O)C1CCCN(c2ccc([N+](=O)[O-])cc2)C1 (stereo not given),-29.8%,-1.6,1.1%,-1.3,-7.0,1.8,-1.0%
CC(=O)C1=CCC(c2ccc(C(C)C)cc2)N(S(=O)(=O)c2ccc(C)cc2)C1 (stereo not given),.,.,0.7%,5.1,-0.1,.,-0.5%
COc1ccc(-n2cnc3c(cnn3CCC#N)c2=N)cc1,-6.7%,-0.5,2.6%,-0.2,-2.6,3.0,0.9%
CCc1ccc(C2CC(c3ccc(Cl)cc3)=NNC2=O)cc1 (stereo not given),-2.2%,9.8,9.1%,1.3,6.8,-0.5,-1.6%
COC(=O)CS(=O)(=O)c1cc(Br)cc2c1N(C(C)=O)CC2,15.7%,-13.4,0.7%,-0.7,-9.3,-0.9,0.4%
COc1ccc(C)c2sc(=NC(=O)c3ccccc3)n(C)c12,13.6%,-3.5,0.2%,0.2,78.0,0.0,?
COc1cc(C(=O)NCCC(C)C)ccc1OCc1ccc(Cl)cc1Cl,4.4%,11.5,-1.0%,1.8,15.0,9.5,-1.6%
CCOc1cc2[nH]c(=O)n(CCC(=O)NCc3ccc(OC)cc3)c(=O)c2cc1OCC,1.3%,-6.0,.,-0.4,5.8,2.2,?
C[C@H](CO)N1C[C@H](C)[C@@H](CN(C)C(=O)Nc2ccc(C(F)(F)F)cc2)Oc2ccc(NS(=O)(=O)c3cccs3)cc2C1=O,.,.,0.7%,-0.6,3.9,.,-3.9%
CN(CC(=O)NC1CCCC1)S(=O)(=O)c1cccc(Cl)c1,.,.,0.9%,0.5,18.3,.,-2.4%
COC(=O)C(NC(C)=O)(Nc1cc(C)ccn1)C(F)(F)F (stereo not given),17.9%,.,0.0%,-0.2,-0.6,9.0,.
CC(C)C(=O)NCCc1nc2ccccc2n1CCCOc1ccc(Cl)cc1,7.2%,-8.4,2.7%,-0.3,1.8,2.7,-1.9%
CCOC(=O)c1cc(-c2ccccc2)n(CCC(=O)Nc2ccc(OC)c(Cl)c2)c1C,.,.,-0.9%,5.5,26.0,.,-8.6%
CCCN[C@@H]1C(=O)N2C(C(=O)OCCC)=C(C)CS[C@H]12,-14.4%,-0.8,2.6%,1.0&-0.8,14.3,-0.4,-4.3%&-5.6%

# Going on with the list.
Compound,Sfp inh,TRPV1 PAM,PINK1 expr mod,TRPML1 ag,TRPML1 inh,Menin-MLL FL inh,ClpP mod
CC(=O)Oc1ccc(C2(C)CC(C)(C)NC(=S)N2C)c(OC(C)=O)c1 (stereo not given),8.8%,1.4,1.3%,-0.4,6.7,3.1,1.5%
O=C(Nc1ccc([N+](=O)[O-])cc1)c1cccc([N+](=O)[O-])c1,.,.,2.1%,-0.1,2.2,.,-3.6%
CCN(CC)S(=O)(=O)c1ccc(-n2cnc3cc(C)c(C)cc32)nc1,11.7%,-9.4,6.1%,0.4,52.3,0.2,.
CC(C)(C)n1nc2c(c1NC(=O)C1CC(=O)N(c3ccc(Cl)cc3)C1)CS(=O)(=O)C2 (stereo not given),5.6%,-4.7,3.6%,-0.3,5.7,1.7,-2.3%
COc1ccc(CCNC(=O)CC(Cc2ccccc2)C(=O)O)cc1OC (stereo not given),8.4%,-5.2,-0.5%,-0.6,12.9,2.6,-1.1%
Cc1ccc(COC(=O)c2cccc(S(=O)(=O)N3CCCCCC3)c2)cc1,.,-3.5,2.8%,1.0,23.9,.,-0.3%
CCSc1nnc(-c2sc3nnc(-c4ccccc4)c(-c4ccccc4)c3c2N)o1,-4.9%,12.3,-0.2%,26.8,-3.6,?,0.7%
CCOC(=O)c1[nH]c(C)c(C(=O)OCC(=O)N2CCCCC2C)c1C (stereo not given),18.0%,-9.5,-0.3%,-0.3,0.3,8.7,1.3%
Cc1cccn2cc(CCNS(=O)(=O)c3ccc4c(c3)OCCO4)nc12,-13.1%,-17.5,-0.1%,0.0,1.2,-3.0,-10.4%
COc1cccc(Nc2nnc(SCc3nc4ccccc4s3)s2)c1,3.3%,-9.2,2.1%,1.8,2.2,2.1,-3.4%
Oc1ccc(NCc2ccc(OCc3ccccc3Cl)cc2)cc1,.,.,0.4%,2.8,29.9,.,-24.0%
CCCCN(CC)CCCNC(=O)Cn1ncc2c([nH]c3ccc(C)cc32)c1=O,.,.,0.3%,2.6,-2.7,.,4.0%
O=C1C(=O)N(CCCO)C(c2ccccc2)/C1=C(\O)c1ccc(Br)cc1 (stereo not given),6.2%,9.7,-0.3%,0.3,-0.8,-0.3,1.2%

# Compound activity as filed in PubChem.
